# Bioassay records: PubChem BioAssay, National Center for Advancing Translational Sciences (NCATS)
# StopGo reporter: lowers the luciferase signal of an FMDV 2A StopGo reporter | human cells with a luciferase reporter of 2A StopGo recoding; control for the full effect not named in the record | Potency, µM (series often up to 57.9 µM), without a hit: at the highest dose signal change, negative = less light | hit rate 1.2% among 410,000; active = well fitted falling curve with a large enough effect; inconclusive = small, poorly fitted or top-dose-only effect; inactive = no such curve, though single readings can be large or run the other way; tested in HEK293T cells; further: on the % scale 0 is the no-effect control and ±100 the full control effect; nearly all actives have a fitted effect of over 45% in size; luciferase light after 4 h
# MARV entry inh: inhibitors of Marburg virus binding or cell entry. Potency, µM (top dose mostly 37.8 µM), for the others: top-dose activity change, negative = inhibition, usual class: inhibitors. AID 540276. Marburg virus pseudotyped entry inhibition, cell reporter; control for the full effect not named in the record; about a third of the inactives were read at about 46 µM. hit rate 1.8% among 300,000; active = well fitted inhibition curve with a large enough effect; inconclusive = small, poorly fitted or top-dose-only effect, or effect the other way; inactive = flat fitted curve, though single readings scatter; tested in HEK293 cells; about a fifth of its hits are not listed in these tables; further: on the % scale 0 is the no-effect control and ±100 the full control effect; luciferase read-out
# RE007 growth inh: less growth of the S. pombe RE007 Vpr strain; S. pombe RE007 Vpr strain, BacTiter-Glo ATP luminescence, 24 h; control for the full effect not named in the record; Potency, µM (doses to about 92.2 µM), without a hit: top-dose activity change, negative = less growth; hit rate 0.21% among 360,000; active = well fitted falling curve with a large enough effect; inconclusive = small, poorly fitted or top-dose-only effect; inactive = no such curve, though single readings can be large or run the other way;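 further: on the % scale 0 is the no-effect control and ±100 the full control effect; nearly all actives have a fitted effect of over 50% in size; the assay follows cell death caused by Vpr and the record does not say whether a fall means rescue or toxicity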
#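 Fission yeast RE007 carrying one integrated HIV-1 vpr copy, seeded at OD 0.01 in PMG+AL medium with 23 nL pinned compound. Grown 24 h at 30 degrees; viability read by BacTiter-Glo luminescence after 5 min.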
# Cruzain inh noDet: cruzain (T. cruzi) inhibition without detergent; Potency, µM, inactives show max response, negative = inhibition, most hits filed as inhibitors; AID 1476; hit rate 2.3% among 200,000; purified cruzain, Z-FR-AMC fluorescence, no detergent;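 further: plate controls were enzyme without inhibitor for no effect and buffer without enzyme for full effect; nearly all actives have a fitted effect of over 40% in size; top concentration of the series not given in the record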
# Target sequence (P25779 123-467 limits assumed): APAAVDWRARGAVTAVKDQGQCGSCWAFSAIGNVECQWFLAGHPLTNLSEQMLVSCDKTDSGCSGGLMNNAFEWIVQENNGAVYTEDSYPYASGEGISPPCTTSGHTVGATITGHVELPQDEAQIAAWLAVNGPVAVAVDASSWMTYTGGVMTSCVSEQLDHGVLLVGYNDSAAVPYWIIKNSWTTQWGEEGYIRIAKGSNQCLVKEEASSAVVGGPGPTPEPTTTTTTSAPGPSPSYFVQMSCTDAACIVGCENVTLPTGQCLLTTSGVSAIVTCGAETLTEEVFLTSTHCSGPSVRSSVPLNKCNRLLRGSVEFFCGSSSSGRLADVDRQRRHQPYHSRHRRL
#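 Detergent-free condition (0.00005% Triton X-100) in acetate buffer pH 5.5 with DTT. 1.5 nM enzyme and compound were pre-mixed 15 min, then 2 uM Z-FR-AMC substrate added; reaction progress from fluorescence change between first and third reads (60 s).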
# Lassa entry inh: Lassa virus entry inhibition | Potency, µM (top dose mostly 37.9 µM), for inactives: at the highest dose activity change, negative = inhibition, usual class: inhibitors | hit rate 1.2% among 300,000 | Lassa virus pseudotype entry inhibition, cell reporter; control for the full effect not named in the record; active means well fitted inhibition curve with a large enough effect; inconclusive means small, poorly fitted or top-dose-only effect, or effect the other way; inactive means flat fitted curve, though single readings scatter; tested in HEK293 cells; further: on the % scale 0 is the no-effect control and ±100 the full control effect; nearly all actives have a fitted effect of over 50% in size; luciferase read-out
# SARS PLP yeast: inhibitors of SARS-CoV papain-like protease in yeast; S. cerevisiae expressing SARS-CoV PLpro, growth rescue; control for the full effect not named in the record; AID 485353; hit rate 0.19% among 330,000; Potency, µM (doses to about 32.9 µM), without a hit: at the top dose activity, positive = growth rescue; active means well fitted rising curve with a large enough effect; inconclusive means small, poorly fitted or top-dose-only effect; inactive means no such curve, though single readings can be large or run the other way; further: 0% is about no effect; nearly all actives have a fitted effect of over 55% in size; growth read by luminescence after 48 h
# NS1 inh: influenza NS1 inhibition; S. cerevisiae slowed by influenza A NS1, growth recovery by OD600; Potency, µM (highest dose often 46.1 µM), inactives show top-dose activity, positive = more growth; hit rate 0.4% among 270,000; active means well fitted rising curve with a large enough effect; inconclusive means small, poorly fitted or top-dose-only effect; inactive means no such curve, though single readings can be large or run the other way; further: nearly all actives have a fitted effect of over 50% in size
#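 Growth recovery, yeast-based: influenza A NS1 expressed in S. cerevisiae causes slow growth, and suppressors are detected by OD600. The parent strain without NS1 is used as positive control.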
# Cruzain Triton: blocks cruzain activity in presence of Triton detergent | Potency, µM, inactives show max response, negative = inhibition, usual class: inhibitors | hit rate 0.43% among 200,000 | purified cruzain, Z-FR-AMC fluorescence, 0.01% Triton;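 further: plate controls were neutral wells for no effect and buffer without enzyme for full effect; nearly all actives have a fitted effect of over 40% in size; top concentration of the series not given in the record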
#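 In this qHTS format, compounds are incubated with 1.5 nM cruzain for 15 min at room temperature before 2 uM Z-FR-AMC is added. Release of AMC is followed at 360/450 nm, and progress is taken as the 60 s fluorescence difference.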
# * hit, by the source's call; ? = inconclusive; . = no result given; [ ] = remark or other dose. Unless noted, the call rests on the fitted dose curve; in most records, active means well fitted curve in the direction sought with a large enough effect; inconclusive means small, poorly fitted or top-dose-only effect, or another doubt; inactive means no such curve, though single readings can be large; an effect the other way counts as inactive or inconclusive. Potency means the concentration at half of the fitted maximal effect.
SMILES,StopGo reporter,MARV entry inh,RE007 growth inh,Cruzain inh noDet,Lassa entry inh,SARS PLP yeast,NS1 inh,Cruzain Triton
CSc1nsc(SCC(=O)Nc2nc3ccccc3s2)n1,4%,10%,-10%,1%,25%,5%,22%,-5.7%
Cc1cc(C)cc(Nc2ncc3c(n2)CCCC3=O)c1,-28%,?,5%,3%,?,-2%,4%,-2.6%
O=C(O)CC1(CC(=O)Nc2cccc(C(F)(F)F)c2)CCCC1,-2%,1%[46.1 µM],-4%,.,-1%,0%,1%,.
COc1ccccc1C(=O)N/N=C(\C)CC(=O)Nc1ccc(Cl)cn1,10%,-5%[46.1 µM],-7%,.,-1%,-3%,-4%,.
O=C(COC(=O)c1ccc2c(=O)n3c(nc2c1)CCC3)Nc1ccccc1F,0%,11%,1%,13%,7%,-20%,1%,-5.2%
Cc1nc2sc3c(c2c(=O)o1)CCCC3,-2%,?,5%,-5%,3%,-5%,-9%,-2.2%
CCN(CC)c1ccc(-c2nc(-c3ccccc3C)no2)cc1[N+](=O)[O-],15%,5%[46.1 µM],.,6%,10%[46.1 µM],.,.,-12%
NS(=O)(=O)c1ccc(CNC(=O)c2cc(-c3cccnc3)nc3ccc(Cl)cc23)cc1,-2%,-19%,4%,.,5%,2%,5%,.
O=C1C2CCCN2C(c2cccc(F)c2)N1c1cccc(Cl)c1 (stereo unspecified),-5%,.,15%,-9%,.,-12%,3%,0.2%
O=C(CSc1nc(O)c(Cc2ccccc2)c(=O)[nH]1)N1CCOCC1,-4%,.,-4%,.,.,3%,?,.
CN1CCCN(C(=O)c2ccccc2Cl)CC1,-2%,7%[46.1 µM],-11%,.,12%[46.1 µM],0%,-2%,.
Cc1ccc(S(=O)(=O)CCC(=O)OCC(=O)NCC(=O)Nc2cccc(C)c2C)cc1,5%,-3%,0%,.,-14%,-1%,0%,.
Cc1ccc(SCCNS(C)(=O)=O)cc1,5%,3%,-4%,-19%,-4%,5%,1%,3.2%
O=C(NCc1ccc(F)cc1)c1ccc(CS(=O)Cc2ccccc2Cl)o1 (stereo unspecified),-18%,.,22%,.,.,-4%,-15%,.
NS(=O)(=O)c1cc(C(=O)O)cc(N2CCCC2)c1Oc1ccccc1,-16%,.,5%[18.4 µM],-9%,.,.,.,-1.6%
C=CCn1c(NC(=O)CC)c(C(=O)OCC)sc1=S,-14%,-1%,9%,-10%,11%,-6%,-1%,0.7%
CS(=O)(=O)N1Cc2ccccc2CC1C(=O)Nc1ccccc1C(N)=O (stereo unspecified),27%,18%,10%,16%,?,6%,-1%,2.3%
CC(C)c1ccc(N(CC(=O)NCCc2ccccc2)C(=O)c2csnn2)cc1,0%,?,2%,.,?,-1%,5%,.
CCOc1cc(-c2ccc(OC(=O)c3ccccc3)c(OC)c2)cc(=O)c2c(C)oc(C)c12,?,?,.,?,-17%[46.1 µM],.,.,-17%
O=C(NCCc1ccccc1)c1ccccc1F,-15%,?,3%,.,?,-1%,-6%,.
CCOC(=O)C(Cc1ccc(NC(=O)/C(=C/c2ccc(OC(C)=O)cc2)NC(C)=O)cc1)N1C(=O)c2ccccc2C1=O (stereo unspecified),?,-11%,-8%,?,5%,1%,0%,-2.9%
COc1ccccc1C(=O)NCCC(=O)NCC(c1ccco1)N1CCCC1 (stereo unspecified),-19%,2%,26%,.,15%,1%,.,.
CN(C(=O)CSc1nnc(-c2ccco2)n1N)C1CCCCC1,2%,?,-19%,.,-11%[46.1 µM],0%,6%,.
CCN(CC)CC(O)COC(c1ccccc1)c1ccccc1 (stereo unspecified),-26%,.,3%,.,.,-1%,-55%,.
CCCn1cc(SCC(=O)NC2CCCC2)c2ccccc21,24%,-15%,-8%,.,14%,.,-14%,.
O=C1CS/C(=N\N=C\c2ccco2)N1c1ccccc1,-1%,?,-15%,.,-23%[46.1 µM],-1%,10%,.
CCN(c1ccccc1)S(=O)(=O)c1ccc(Cl)c(C(=O)NCc2ccco2)c1,-25%,-23%,17%,.,-1%,-5%,.,.
CCc1cccc2c(C(=O)COC(=O)c3ccccc3)c[nH]c12,38%[activator],5%,-9%,0%,-4%,7%,1%,-9.7%
COc1ccc(C(=O)Nc2nnc(SCC(=O)NC3CC3)s2)cc1,6%,10µM*,9%,.,?,-4%,-4%,.
CCC(Cc1ccccc1)NS(=O)(=O)c1ccc2c(c1)NC(=O)CO2 (stereo unspecified),0%,?,1%,.,-29%[46.1 µM],1%,0%,.
Cc1cccc(C)c1Nc1ncnc(N)c1[N+](=O)[O-],-17%,16%,13%,-3%,4%,7%,-4%,-2.8%
COc1ccc(CC2(CO)CCN(Cc3cnn(C)c3)CC2)cc1,-3%,10%[46.1 µM],4%,.,.,10%,3%,.
OCC1(CO)CC2(C1)CC(CO)(CO)C2,-12%,-2%,0%,.,0%,.,.,.
CCN(CC)c1nc2ccccc2c(N)c1-c1ccccc1,-21%,?,7%,7%,?,-2%,5%,0.3%
COc1cccc2[nH]c(C(=O)NCc3ccccc3)cc12,9%,-2%,-12%,.,-26%,-1%,4%,.
O=C(CSc1oc(-c2ccccc2)nc1S(=O)(=O)c1ccc(Cl)cc1)Nc1ccc(F)cc1,-31%,-5%[46.1 µM],.,6%,?,.,.,-4.6%
CCOC(=O)Cc1csc(NC(=O)CN2CCN(CC)CC2)n1,-10%,1%[46.1 µM],20%,.,9%[46.1 µM],0%,11%,.
Cc1cc(C)c(CN2CCN(Cc3ccc(C)o3)C(CCO)C2)c(-n2cccn2)c1 (stereo unspecified),-23%,?,3%,.,-26%,1%,0%,.
COCCn1c(C)cc(C(=O)Cn2nc(C(=O)O)c3ccccc3c2=O)c1C,-15%,?,2%,.,2%,1%,.,.
C=CCC1NS(=O)(=O)OC(CCc2ccccc2)C1O (stereo unspecified),28%,.,-6%,.,.,10%,15%,.

# Reprinted from above (2 entries):
SMILES,StopGo reporter,MARV entry inh,RE007 growth inh,Cruzain inh noDet,Lassa entry inh,SARS PLP yeast,NS1 inh,Cruzain Triton
OCC1(CO)CC2(C1)CC(CO)(CO)C2,-12%,-2%,0%,.,0%,.,.,.
CCN(CC)c1nc2ccccc2c(N)c1-c1ccccc1,-21%,?,7%,7%,?,-2%,5%,0.3%

# Additional records follow.
SMILES,StopGo reporter,MARV entry inh,RE007 growth inh,Cruzain inh noDet,Lassa entry inh,SARS PLP yeast,NS1 inh,Cruzain Triton
CCCCc1nn2c(=O)cc(COC(=O)c3cccc(NC(=O)c4cccc(C)c4)c3)nc2s1,1%,.,.,-4%,-18%[46.1 µM],.,.,1.2%
Cc1c(N=Cc2ccc(Br)s2)cccc1[N+](=O)[O-],13%,14%,-3%,0%,0%,0%,-6%,7.1%
C=CCn1c(Cc2cccs2)nnc1SC/C=C/c1ccccc1,13%,-5%,-13%,9%,4%,-26%,-13%,1.8%
Cc1cccc(-n2c(Cn3nc(C)c([N+](=O)[O-])c3C)n[nH]c2=S)c1,-13%,-3%,12%,-6%,9%,5%,15%,2.8%
COc1ccc(NC(=O)c2ccc(N3C(=O)C4CC=C(Cl)CC4C3=O)cc2)cc1 (stereo unspecified),-12%,.,-2%,.,.,6%,33%,.
Cc1ccc(Sc2cc(N3CCOCC3)nc(-c3ccccc3)n2)cc1,-15%,?,-17%,-2%,-10%,3%,-3%,4.2%
CCOc1ccccc1NC(=O)N1CCCC1C(=O)Nc1ccc(-n2cnnn2)c(C)c1 (stereo unspecified),7%,?,0%,-7%,-16%,-4%,-1%,4.9%
CSc1ccc(S(=O)(=O)NCCCOC(C)C)cc1,4%,-2%[46.1 µM],-8%,.,-1%,-1%,3%,.
COc1ccc(NC(=O)CCc2nc3c(C)nn(-c4ccc(C)cc4)c3n(C)c2=O)cc1,5%,.,.,8%,2%[46.1 µM],.,.,0.4%
COc1ccc(NC(=O)C(c2ccccc2)N(C)C(=O)c2ccc(=O)[nH]c2)cc1 (stereo unspecified),-20%,?,10%,-6%,22%,15%,1%,-0.8%
CC(C)C(=O)N1CCN(C2=NS(=O)(=O)c3ccccc32)CC1,-5%,5%,-22%,-15%,-9%,2%,23%,0.7%
Cc1cc(C)n(S(=O)(=O)c2ccc(C)c(C)c2C)n1,-16%,?,0%,-5%,2%,6%,-5%,-0.4%

# Just Cruzain Triton and NS1 inh (six entries from above):
SMILES	Cruzain Triton	NS1 inh
CCOc1ccccc1NC(=O)N1CCCC1C(=O)Nc1ccc(-n2cnnn2)c(C)c1 (stereo unspecified)	4.9%	-1%
CSc1ccc(S(=O)(=O)NCCCOC(C)C)cc1	.	3%
COc1ccc(NC(=O)CCc2nc3c(C)nn(-c4ccc(C)cc4)c3n(C)c2=O)cc1	0.4%	.
COc1ccc(NC(=O)C(c2ccccc2)N(C)C(=O)c2ccc(=O)[nH]c2)cc1 (stereo unspecified)	-0.8%	1%
CC(C)C(=O)N1CCN(C2=NS(=O)(=O)c3ccccc32)CC1	0.7%	23%
Cc1cc(C)n(S(=O)(=O)c2ccc(C)c(C)c2C)n1	-0.4%	-5%
